Compound activity as filed in PubChem.
MT1-MMP promoter: inhibitors of MT1-MMP promoter transcription, cell-based, luciferase reporter, luminescence (AID 618) | 87,000 compounds, 0.62% hits | calls from a first round at 10 µM; hits with a dose series show EC50 in µM | MT1-MMP promoter luciferase reporter cells, luminescence;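 active means over half of the reporter light lost at 10 µM or EC50 under 50 µM; inactive means the rest and hits that failed the dose series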;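 further: actives suppress MT1-MMP promoter-driven transcription so potencies describe inhibitors; HT1080 fibrosarcoma cells; overnight exposure; toxic or luciferase-blocking compounds were not removed from the actives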
WNV protease inh: inhibitors of WNV NS2B-NS3 protease, primary screen, biochemical, fluorogenic substrate | 65,000 compounds, 0.18% hits | fluorogenic substrate Ex360/Em465; active compounds read low | AID 577, 2007 | z-score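 (tested at a level between 10 and 100 µM)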 | Genome polyprotein (West Nile virus), P06935;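 active means z-score at -3 or under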;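 further: score is relative to mean and spread of the compound wells of a plate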
Target sequence (P06935 1371-1501 limits assumed): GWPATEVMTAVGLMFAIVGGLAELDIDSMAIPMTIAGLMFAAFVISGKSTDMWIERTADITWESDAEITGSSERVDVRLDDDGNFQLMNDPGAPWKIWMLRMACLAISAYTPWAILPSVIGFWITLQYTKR
Target sequence (P06935 1502-1679 limits assumed): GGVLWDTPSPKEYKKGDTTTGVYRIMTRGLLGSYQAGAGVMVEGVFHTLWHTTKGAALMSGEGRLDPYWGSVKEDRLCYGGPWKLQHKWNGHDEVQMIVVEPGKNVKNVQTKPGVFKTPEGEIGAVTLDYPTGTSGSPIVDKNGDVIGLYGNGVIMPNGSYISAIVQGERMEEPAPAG
Hsc70: Hsc70 inhibitors, probe displacement, primary screen, biochemical, fluorescence polarization (AID 568); Heat shock cognate 71 kDa protein (Homo sapiens); displacement, % at 20 µM; hits with a dose series show IC50 in µM; 83,000 tested, under 10 active; Hsc70 fluorescence polarization, probe displacement; higher % means a stronger effect; strong numbers were not always called active;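 active means displacement above 50% without optical interference and an IC50 on retest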;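 further: ATPase domain with a fluorescein-tagged ATP probe; 0% = vehicle and 100% = excess ADP; read after one hour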
* hit, by the source's call; i = inactive; . = no result given; + = active, no number. Only part of the results is shown, so the mix of outcomes need not match the whole.

Values run as follows: MT1-MMP promoter | WNV protease inh | Hsc70
O=C(c1ccccc1Br)N1CCN(c2ccccc2)CC1
→ i | 0.96 | 0.9%
O=C(NCCc1ccco1)c1nn(Cc2ccccc2)c(=O)c2ccccc12
→ i | -0.55 | -5.0%
O=c1oc2ccccc2c(N2CCCCC2)c1CN1CCCCC1
→ i | 1.13 | -5.7%
CC(C)NC(=O)NS(=O)(=O)c1cnccc1N1CCCCC1
→ i | . | -1.3%
O=C(CCC(=O)c1cccs1)OCc1nc2ccccc2s1
→ i | -1.32 | 8.2%
CS(=O)(=O)N1CCN(C(=O)c2cc(-c3cccs3)nc3ccccc23)CC1
→ i | -0.11 | -2.4%
CCCOCC1CC2(CC(C)(c3csc(N)n3)OC2=O)C(=O)O1 (stereo unspecified)
→ i | . | -1.2%
c1ccc2c(c1)ncn2-c1ncnc2sc3c(c12)CCCC3
→ i | . | 2.7%
O=C(c1cccs1)N(Cc1ccco1)c1nc(-c2ccc(F)cc2)cs1
→ i | . | 5.2%
Cc1cccc(N2CCN(S(=O)(=O)c3ccc4c(c3)CCN4C(=O)CCC(=O)O)CC2)c1C
→ i | 0.23 | -4.4%
CCOC(=O)c1nn(-c2ccc3c(c2)OCO3)cc1O
→ i | -1.62 | -2.9%
CS(=O)(=O)N1CCc2cc(C(=O)N3CCOCC3)ccc21
→ i | 0.31 | 2.7%
Cc1noc(C)c1C(=O)OCC(=O)NC(=O)NC12CC3CC(CC(C3)C1)C2
→ i | -0.39 | 0.2%
CCN(CC)c1ccc(CNC23CN4CN(CN(C4)C2)C3)cc1
→ i | 0.16 | -1.9%
COc1cc2c(C(=O)O)c(C)n(CC(C)C)c2c2ccccc12
→ i | . | 1.3%
COc1ccccc1C(=O)N1CCN(S(=O)(=O)c2ccccc2)CC1
→ i | -0.68 | -0.7%
CCOc1cc(N2CCOCC2)c(OCC)cc1NC(=O)CN1CCc2ccccc2C1
→ i | -1.06 | 2.3%
CCCn1c(N2CCN(C(=O)N3CCCCC3)CC2)nc2ccccc21
→ i | -0.29 | -9.5%
O=C(c1ccc(F)cc1)C(CN1CCOCC1)c1ccccc1 (stereo unspecified)
→ + | 1.14 | -7.9%
FC(F)(F)C(Oc1nc(Nc2ccc(Cl)cc2)nc(N2CCOCC2)n1)C(F)(F)F
→ i | . | -3.5%
Cc1cc(C(=O)OC2CCOC2=O)c2ccccc2n1 (stereo unspecified)
→ i | . | 0.7%
CCCc1cc(=O)[nH]c(SCCOC(=O)c2ccccc2)n1
→ i | . | 1.4%
Cc1onc(-c2ccccc2Cl)c1C(=O)N1CCN(C(=O)c2ccco2)CC1
→ i | -1.29 | 4.1%
O=C(c1cccs1)N1CCC(c2ccccc2)C1 (stereo unspecified)
→ i | -0.69 | -2.8%
O=C(O)C1CCCN1S(=O)(=O)c1ccc2[nH]c(=O)c(=O)[nH]c2c1 (stereo unspecified)
→ i | 0.16 | -4.6%
COc1cc(CN2CCSCC2)cc(OC)c1OC
→ i | 0.79 | -4.6%
COC(=O)c1ccc(NC(=O)CNC(=O)C2CCCCC2)c(C)c1
→ i | -0.65 | 7.8%
CC1CCCC(C)N1C(=O)c1cc(F)c(F)cc1Cl (stereo unspecified)
→ i | 0.4 | 2.7%
O=C(CCC(=O)c1cccs1)NCc1ccc(Cl)cc1
→ i | . | -0.2%
Cc1nn(CC(=O)Nc2ccc3c(c2)oc2ccccc23)c(=O)c2ccccc12
→ i | -0.4 | -4.8%

Quoted at random: 5 records from the list.
Values run as follows: MT1-MMP promoter | WNV protease inh | Hsc70
COC(=O)c1ccc(NC(=O)CNC(=O)C2CCCCC2)c(C)c1
→ i | -0.65 | 7.8%
O=C(CCC(=O)c1cccs1)NCc1ccc(Cl)cc1
→ i | . | -0.2%
Cc1cc(C(=O)OC2CCOC2=O)c2ccccc2n1 (stereo unspecified)
→ i | . | 0.7%
O=C(c1cccs1)N1CCC(c2ccccc2)C1 (stereo unspecified)
→ i | -0.69 | -2.8%
Cc1nn(CC(=O)Nc2ccc3c(c2)oc2ccccc23)c(=O)c2ccccc12
→ i | -0.4 | -4.8%

Going on with the list.
Values run as follows: MT1-MMP promoter | WNV protease inh | Hsc70
COc1ccccc1N1CCN(C(=O)CN(Cc2ccc(Cl)cc2)S(C)(=O)=O)CC1
→ i | -0.59 | -2.7%
COc1ccccc1Nc1nnc(C)c(=O)[nH]1
→ i | . | 1.3%
COc1ccc(Cn2c(C)nc3c(c2=O)c2nc4ccccc4nc2n3Cc2ccco2)cc1
→ i | -1.1 | -16.4%
Cn1c(=O)c2c(nc(SCC(=O)NC3CCCCC3)n2C)n(C)c1=O
→ i | -0.72 | 0.0%
Cc1nnc(SCc2ccccc2F)n1NCc1cccs1
→ i | -1.16 | -0.5%
N#Cc1cccc(C(c2nnnn2C2CCCC2)N2CCC(Cc3ccccc3)CC2)c1 (stereo unspecified)
→ i | . | 0.3%
COc1ccc(OCc2nnc(SCC(=O)O)n2N)cc1
→ i | 0.22 | 1.0%
Cc1nc2c(cc(Oc3ccc(S(=O)(=O)N4CCOCC4)cn3)c3ccsc32)s1
→ i | -0.01 | -4.8%
Cc1cccc(C)c1-n1nnnc1S(=O)(=O)Cc1ccccc1Cl
→ i | 0.64 | -1.3%
c1csc(CN2CCN(Cc3cccs3)C2c2cccs2)c1
→ i | -0.64 | 5.9%
O=C(CSc1nc2cc(Cl)ccc2s1)N1CCN(C(=O)c2ccco2)CC1
→ i | 1.5 | 0.1%
CCN(C(=O)c1cccc(F)c1)c1ccccc1C
→ i | -1.05 | 3.1%
CN(c1cccc(NC(=O)CSc2ccc(Cl)cc2)c1)S(C)(=O)=O
→ i | . | 6.2%
Cc1cc2c(C)nc(Cc3ccccc3)nc2o1
→ i | -0.53 | -0.6%
O=S(=O)(Nc1ccc(Cc2ccncc2)cc1)N1CCCC1
→ i | -0.17 | -1.1%
COC(=O)C1CC(=O)N(CCc2c[nH]c3ccccc23)C1 (stereo unspecified)
→ i | . | 4.4%
COC(=O)C1=C(C)OC(N)=C(C#N)C1c1ccc(OC)c(OC)c1OC (stereo unspecified)
→ i | -0.76 | 1.0%
COc1ccc(-n2nnnc2SCC(=O)Nc2nc3c(s2)CCCC3)cc1
→ i | . | -4.4%
O=C(NC1CCCCC1)c1cc2nc(-c3ccco3)cc(C(F)(F)F)n2n1
→ i | -0.67 | 6.2%
O=C(Nc1ccccc1C(=O)O)c1ccc(NC(=O)c2ccc(Br)o2)cc1
→ i | . | 7.4%
O=C(Nc1ccccc1N1CCN(C(=O)c2ccc(Cl)cc2)CC1)c1ccc2c(c1)OCO2
→ i | -0.23 | 2.6%
Cn1nc(-c2ccc(Cl)cc2)c2cc(C(=O)NC3CC3)sc21
→ i | 0.75 | -1.5%
Cc1ccc(SCC(=O)c2cc(C)c(OC(=S)N(C)C)c(C)c2)cc1
→ i | . | -2.9%
O=C(Nc1ncc2c(n1)CC(c1ccco1)CC2=O)c1ccccc1 (stereo unspecified)
→ i | -2.64 | -7.7%
COc1ccc(-n2c(CSc3nc(C)cc(C)n3)nnc2SCC(=O)Nc2nccs2)cc1
→ i | 0.2 | 2.5%
CCC1Oc2ccccc2N(CC(=O)NCCN2C(C)CCCC2C)C1=O (stereo unspecified)
→ i | 0.57 | 0.1%
Cn1c(SCC(=O)NCCNC(=O)CSc2nnc(C(F)(F)F)n2C)nnc1C(F)(F)F
→ i | . | -5.1%
Cc1ccc(-c2cc(C(=O)O)n[nH]2)o1
→ i | -0.12 | 3.6%
CCC(=O)N1CCN(CCN=CC2=C(O)CC(c3cccs3)CC2=O)CC1 (stereo unspecified)
→ i | -0.48 | 5.0%
O=C1CC(NCc2ccncc2)C(=O)N1c1ccc(Cl)cc1 (stereo unspecified)
→ i | 0.71 | -0.4%
Cc1ccccc1C(OCC(O)CN1CCCCC1CCO)c1ccccc1 (stereo unspecified)
→ i | -0.69 | 6.2%
CC(=O)Oc1cc2oc(=O)cc(C)c2cc1OC(C)=O
→ i | 1.88 | 5.1%
Cn1c(Cn2nnc3ccccc32)nnc1SCC(=O)NCc1ccc2c(c1)OCO2
→ i | -1.15 | 1.8%
CCOCCCNC(=O)C1CC(=O)N(C2CCCC2)C1 (stereo unspecified)
→ i | 0.4 | -2.5%
CCOC(=O)CSc1nnc2n(Cc3ccccc3)c(=O)c3c4c(sc3n12)CCC4
→ i | 1.14 | 7.3%
Cn1cnnc1SCC(=O)N(Cc1ccc2c(c1)OCO2)C1(C(=O)NC2CCCCC2)CCCC1
→ i | -1.22 | -4.7%
O=C(CSCSCC(=O)Nc1ccc2c(c1)OCO2)Nc1ccc2c(c1)OCO2
→ i | -0.86 | -7.0%
CC(=O)Nc1cccc(NC(=O)c2cc(C)on2)c1
→ i | -0.49 | 1.0%
O=C(O)c1ccccc1Nc1cccc(C(F)(F)F)c1
→ i | 0.34 | -0.9%
COc1cccc(CNC(=O)C2CCN(c3cnccn3)CC2)c1
→ i | 1.23 | -5.9%
C=CCn1c(C)nc2c(c1=O)c1nc3ccccc3nc1n2-c1ccc(C)cc1
→ i | 0.29 | -3.8%
O=c1oc(-c2ccccc2)nc2sc3c(c12)CCCC3
→ i | . | -3.2%
O=C(Nc1ccccn1)Nc1cccs1
→ i | -0.27 | 6.0%
C=CCNC(=S)NNC(=O)C(CCCC)CC(C)(C)O (stereo unspecified)
→ i | . | -4.6%
CCN(CC)S(=O)(=O)c1cccc2cc(C(=O)O)c(O)cc12
→ i | 0.67 | 2.3%
CC1Cc2cc(/C(O)=C3/C(=O)C(=O)N(CCCn4ccnc4)C3c3ccco3)ccc2O1 (stereo unspecified)
→ i | -1.3 | -8.6%
CCOC(=O)c1[nH]c(C)c(C(=O)OCC)c1C
→ i | 0.66 | 1.9%
O=C(COc1ccccc1)NC(=S)Nc1ccc2c3c(cccc13)CC2
→ i | . | -1.2%
CCOCCCNC(=O)N[C@@H](Cc1ccccc1)C(=O)OC
→ i | -1.03 | -5.2%
C=CCN(CC=C)S(=O)(=O)c1ccc(NC(=O)COc2ccccc2OC)cc1
→ i | . | -7.0%

Later entries.
Values run as follows: MT1-MMP promoter | WNV protease inh | Hsc70
CCC1(C)Cc2ccccc2-c2nc(-c3ccccc3)oc(=O)c21 (stereo unspecified)
→ i | . | 0.5%
OC(COc1cccc2ccccc12)CN1CCCC1 (stereo unspecified)
→ i | . | 0.8%
COC(=O)C(Cc1ccc(O)cc1)NC(=O)c1ccccc1 (stereo unspecified)
→ i | . | 4.3%
Cc1noc(NS(=O)(=O)c2ccc(NC(=O)CC34CC5CC(CC(Br)(C5)C3)C4)cc2)c1C
→ i | . | 7.5%
Cc1cc(=O)[nH]c2c1c(=O)[nH]n2C1CC(C)N(C)CC1C (stereo unspecified)
→ i | 2.03 | -10.0%
CCCCCNc1nc(N2CCCC2)c2c(c1C#N)CCN(C)C2
→ i | -1.06 | 4.2%
Cc1ccc(S(=O)(=O)NCCC(=O)Nc2ccc3c(c2)OCO3)cc1
→ i | 0.47 | 5.1%
CCCCOc1nc2ccccc2nc1C(C#N)C(=O)NC1CCCCC1 (stereo unspecified)
→ i | 0.39 | -16.5%
CCOC(=O)c1c(NC(C)=O)sc2c1C1CCN2CC1
→ i | . | -5.3%
CC(C)Oc1ccc(C2CC(=O)NC3=C2C(=O)CCC3)cc1 (stereo unspecified)
→ i | -0.52 | -0.5%
COCCCn1c(=N)c(C(=O)NCC2CCCO2)cc2c(=O)n3ccccc3nc21 (stereo unspecified)
→ i | 3.93 | -3.0%
CC(=NCCCn1ccnc1)c1c(O)n(Cc2ccccc2)c(=O)[nH]c1=O
→ i | . | -0.4%
Nc1ccc(N2CCCCC2)cc1N1CCCCC1
→ i | -1.08 | -4.6%
Cc1ccccc1NC(=O)CCSc1nnnn1-c1ccccc1
→ i | . | 6.5%
Brc1ccccc1Cn1c(-c2cncs2)nc2ccccc21
→ i | -0.26 | 4.1%
O=C(O)c1ccccc1OCCOc1ccccc1
→ i | 0.9 | 4.0%
Cc1cc(C(=O)Nc2ccc3c(c2)OCCO3)c(C)o1
→ i | 0.86 | 3.0%
Cc1ccc(-c2nc3ccccc3o2)cc1NC(=O)c1ccc2c(c1)OCO2
→ i | 1.88 | -18.2%
Cc1c(C(=O)OCCOC(C)C)[nH]c2c1C(=O)CC(C)(C)C2
→ i | -0.44 | 1.9%
COc1ccccc1NC(=O)CN1CCN(c2ccc(Cl)cc2)CC1
→ i | -0.37 | -8.4%
O=C(CCC(=O)N1CCCc2ccccc21)N1CCN(S(=O)(=O)c2ccccc2)CC1
→ i | 0.34 | 2.9%
O=C(CCC1CCCC1)NCc1ccccn1
→ i | 2.23 | -1.7%
Cn1c(=O)c2c(ncn2CC(=O)N2CCN(c3ccccc3F)CC2)n(C)c1=O
→ i | -0.29 | 6.8%
O=C(CCn1nc(-c2ccc(Cl)cc2)ccc1=O)N1CCN(c2ccccn2)CC1
→ i | -0.86 | 2.5%
O=C(Cc1ccc(Br)cc1)NC1CCCCC1
→ i | . | 3.1%
C=CCn1c(N)c(C(=O)OCC)sc1=S
→ i | . | -3.2%
CCC(Oc1ccc(C)c(C)c1)C(=O)O (stereo unspecified)
→ i | 0.99 | 2.1%
O=C(O)c1cn(-c2ccccc2)nc1-c1cccnc1
→ i | 0.56 | 2.4%
Cc1ccc(Oc2cc(C)nc(-c3ccccc3O)n2)cc1
→ i | 0.37 | 1.9%
O=C(O)CCc1nn2c3ccccc3nc2n(-c2ccccc2)c1=O
→ i | -0.6 | 3.4%
Clc1ccccc1CN(Cc1ccco1)Cc1nnnn1C1CCCC1
→ i | . | -4.6%
Cc1ccc(NC(=O)Cn2cnc3c(=O)n(C)c(=O)n(C)c32)c(C)c1
→ i | 0.62 | -3.0%
